PABP FP inh: PABP poly(A) RNA binding inhibitors, primary screen, biochemical, fluorescence polarization, uHTS; inhibition, % at 35 µM; Polyadenylate-binding protein 1 (Homo sapiens), P11940; AID 2014, 2009; 290,000 compounds, 1% hits;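 active means 50% or more with normal probe brightness, or confirmed in later tests; inconclusive means above 50% with abnormal brightness, or retests that disagree; inactive means below 50% or failed in later tests; about a fifth of its hits are not listed in these tables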;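 further: calls also rest on retests at 20 µM and on dose response follow-up; controls were probe without protein and protein plus probe with vehicle; some compounds called inactive have numbers as strong as hits; many hits fall short of the cut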
Env fusion inh: inhibitors of HIV-1 Env-driven cell-cell fusion, primary screen, HeLa-JRFL effector, CEM21 target cells, luciferase. inhibition, % at 12.3 µM. 360,000 compounds, 1.1% hits. AID 651610, 2012;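 active means mean replicate inhibition score of at least 50 and every replicate individually at or above 50; inconclusive means only one of the two criteria met; inactive means mean below 50 and not all replicates reaching 50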;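 further: 0% = plate neutral controls and 100% = maraviroc near 300 nM; one replicate is shown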
MT1-MMP act inh: blockers of MT1-MMP proenzyme processing, primary screen, HT1080 RFP-PRO-GFP cells, GFP/RFP fluorescence | GFP/RFP ratio fluorescence, overnight; percent of plate control window, DMSO zero | 360,000 compounds, 0.061% hits | Matrix metalloproteinase-14 (Homo sapiens), P50281 | GFP/RFP ratio change, % at 20 µM;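 active means GFP/RFP ratio change of at least 30% with cell ATP level not reduced by more than half and red fluorescence within 50% of control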; further: strong numbers were not always called active
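Material: RFP-PRO-GFP reporter HT1080 cells. Dosing: single-point 20 µM compound, 1% DMSO. Controls: DMSO and RFP-L50D-GFP cell wells. Timing: cells overnight before dosing, compound overnight, 37 °C, 5% CO2. Measure: GFP/RFP fluorescence ratio.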
CSC inhib: cancer stem cell viability inhibitors, primary screen, luminescence. cancer stem cell-like cells viability. inhibition, % at 7.5 µM. 300,000 compounds, 1.1% hits. AID 2717, 2010;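 active means mean at 75% or more and at least half the replicates too; inconclusive means mean and replicates disagree; tested in HMLE shEcad cells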;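 further: 0% = median of negative and 100% = median of positive control wells; the first replicate is given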
eIF4H inh: human eIF4H binding inhibitors, primary screen, translation initiation inhibitor project, biochemical, uHTS, fluorescence polarization; Eukaryotic translation initiation factor 4H (Homo sapiens), Q15056; eIF4H fluorescence polarization binding assay; inhibition, % at 35 µM; 290,000 compounds, 0.94% hits;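 active means 50% or more with normal probe brightness, or confirmed in later tests; inconclusive means above 50% with abnormal brightness, or retests that disagree; inactive means below 50% or failed in later tests; about a fifth of its hits are not listed in these tables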;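 further: calls also rest on retests at 20 µM and on dose response follow-up; 0% = protein and probe with vehicle and 100% = probe without protein; strong numbers were not always called active; many hits fall short of the cut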
Rce1 inhib: yeast Rce1p protease inhibitors, primary screen, biochemical, fluorescence, cell-free homogeneous | 290,000 compounds, 0.27% hits | AID 2563, 2010 | yeast membranes, quenched prenylated peptide cleavage fluorescence | calls only;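 active means fall in fluorescence gain of 50% or more versus controls, with final raw signal at or below 3038400; inconclusive means same 50% fall but final raw signal above 3038400; inactive means fall in fluorescence gain under 50%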;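 further: plate controls were neutral control wells for no effect and wells lacking membranes for full effect; tested at 10 µM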
Target sequence (Q03530 whole entry, looked up): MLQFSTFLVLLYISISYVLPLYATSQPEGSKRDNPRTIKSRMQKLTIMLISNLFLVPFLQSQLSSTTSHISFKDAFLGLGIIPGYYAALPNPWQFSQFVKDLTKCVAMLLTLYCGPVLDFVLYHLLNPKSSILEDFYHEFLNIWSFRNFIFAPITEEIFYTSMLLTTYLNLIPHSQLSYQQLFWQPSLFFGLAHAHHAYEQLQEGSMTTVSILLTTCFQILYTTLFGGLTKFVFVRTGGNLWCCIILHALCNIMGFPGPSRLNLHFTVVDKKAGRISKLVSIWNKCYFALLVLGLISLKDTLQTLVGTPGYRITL
UUG fidelity: modulators of yeast start codon fidelity, primary screen, whole organism, S. cerevisiae, single point, plate reader; S. cerevisiae UUG-firefly luciferase reporter, luminescence/redox ratio; activity score, % at 18.7 µM; 350,000 compounds, 0.13% hits; AID 602363, 2012;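 active means replicate mean at a twofold rise or more, about +100% in these data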;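 further: firefly luciferase made from a UUG start codon reports start codon fidelity; reporter light over untreated wells divided by growth signal over untreated wells; some hits fall short of that in this replicate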
MT1-MMP act inh RFP: recorded beside MT1-MMP act inh, whose call it bears; RFP signal change, %; measured here: RFP expression control read;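 0 = vehicle wells; hits needed this value within 50% of zero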
* = called active by the depositor; i = inactive; ? = inconclusive; . = no result given; & = joins results of further samples.

SMILES | PABP FP inh | Env fusion inh | MT1-MMP act inh | MT1-MMP act inh RFP | CSC inhib | eIF4H inh | Rce1 inhib | UUG fidelity
Cc1cc(Cl)cc(C)c1OCC(=O)NC1CCCCCC1 | . | . | -2 | 1 | 10 | . | . | 9
COc1cc(/C=N/NC(=O)NC2CCCCC2)cc(OC)c1O | -14 | -9 | 4 | 5 | -9 | -2 | i | -17
Cc1ccc(S(=O)(=O)Cc2ccc(C(=O)NC3CCCCCC3)o2)cc1 | 11 | 0 | -1 | -3 | -17 | -3 | i | 15
O=c1[nH]c2cc3c(cc2cc1C(c1nnnn1CC1CCCO1)N1CCCCCC1)OCCO3 (stereo not given) | 24 | 16 | -2 | 3 | 13 | 13 | i | .
O=C(NCCO)c1cccc(Nc2nc(-c3ccccc3)c3cc(Cl)ccc3n2)c1 | 5 | 5 | -7 | -4 | 14 | 4 | i | 16
O=C(Nc1ccc(N2CCCC2)cc1)c1cc2ccccc2o1 | 32 | -35 | 2 | 2 | 17 | 10 | i | -6
COc1ccccc1C(=O)N(C1=NC(C)CS1)c1ccc(Cl)cc1 (stereo not given) | -6 | -6 | -2 | -3 | 0 | 0 | i | 11
Cc1cc(C)n2nc(SCC(=O)c3ccccc3)nc2n1 | -1 | . | 0 | -1 | 3 | 6 | i | -5
CN(C)S(=O)(=O)c1cc(NC(=O)CN2CCOCC2)ccc1Cl | 0 | -5 | -2 | -2 | -2 | 3 | i | .
CCOC(=O)N1CCC(NC(=O)CN2C(=O)C(CC)Oc3ccc(C)cc32)CC1 (stereo not given) | 3 | -18 | 2 | -2 | -8 | 4 | i | -19
N#Cc1nc(-c2ccc(Cl)cc2)oc1NCC1CCCO1 (stereo not given) | -2 | -7 | 5 | 0 | 7 | 1 | i | -4
CCc1nc2c(OCCn3cccc3)cccn2c1N(C)C(=O)c1cccs1 | . | -23 | 5 | 1 | . | . | . | -4
CC(C)Nc1ncnc2c1ncn2[C@H]1CN(Cc2cccnc2)C[C@@H](CO)O1 | . | 4 | 1 | 6 | . | . | . | -23
CC(C)NC(=O)c1cc(-n2cnnc2)ccc1Cl | 5 | -2 | 4 | 11 | . | 1 | i | -14
CCOC(=O)N1CCN(C(=O)CN(c2ccc(OCc3ccccc3)cc2)S(C)(=O)=O)CC1 | -7 | -3 | -2 | -2 | -9 | -12 | i | .
Cc1ccc(-c2cn3cccnc3n2)cc1NC(=O)c1ccc(Br)o1 | 3 | -17 | 17 | 7 | -4 | -8 | i | -12
Cc1oc(-c2ccoc2)nc1CN(CC1CCC(=O)N1)C(C)C (stereo not given) | -2 | 5 | 0 | 0 | -11 | 2 | i | -6
COc1ccc(C2c3c(n[nH]c3C)CC(C)(O)C2C(C)=O)cc1OC (stereo not given) | -2 | -3 | 0 | 2 | -15 | 0 | i | -18
Cc1nc(SCc2ccccc2C#N)n[nH]1 | 22 | 4 | -1 | 1 | -2 | -4 | i | -25
CCN(CC)c1ccc(/C=N/NC(=O)CNC(=O)C2COc3ccccc3O2)c(O)c1 (stereo not given) | 3 | 4 | -2 | -8 | 4 | 14 | i | -8
CCOc1ccc(N(CC(=O)NCc2ccco2)C(=O)CCC(=O)Nc2nccs2)cc1 | 2 | 4 | -2 | -2 | 5 | -4 | . | -21
CCCn1c(N)c(C(=O)CSc2nnc(C3CC3)n2Cc2ccccc2)c(=O)[nH]c1=O | -2 | . | -3 | -1 | . | 0 | i | -16
COc1ccccc1OCc1nnc(SCC(=O)N2CCCCC2)o1 | 7 | -10 | 2 | 2 | . | 0 | i | 1
O=C(C=Cc1cccc(O)c1)c1ccccc1O | . | -17 | 6 | -1 | . | . | . | -45
O=C(Nc1nc(-c2ccc(Cl)s2)cs1)c1ccccc1 | -3 | -11 | -21 | -17 | 39 | -10 | i | -13

Next results
SMILES | PABP FP inh | Env fusion inh | MT1-MMP act inh | MT1-MMP act inh RFP | CSC inhib | eIF4H inh | Rce1 inhib | UUG fidelity
COC(=O)CCC(=O)CN | 12 | . | 1 | 2 | -11 | -9 | i | -14
CC(NC(=O)c1cc2ccccc2o1)C(=O)O (stereo not given) | 2 | . | 0 | -2 | -6 | 0 | i | -5
Cc1cccc(NC(=O)[C@H](Cc2ccccc2)NC(=O)OCc2ccccc2)c1 | -12 | 10 | -8 | -7 | -13 | -16 | i | .
CC(=O)c1ccc(N(CC(=O)NC2CCCC2)C(=O)CNC(=O)c2cccs2)cc1 | 11 | -10 | -2 | 0 | . | -3 | i | 6
CCCCSc1oc(-c2ccco2)nc1S(=O)(=O)c1ccccc1 | 11 | 26 | -3 | -7 | 3 | 4 | i | -4
O=C(CN1C(=O)NC(c2ccc(F)cc2)C1=O)NC1CCCCC1 (stereo not given) | . | . | 0 | 1 | -15 | . | . | -18
N#CCCN(C(=O)COC(=O)c1ccc2c(=O)n3c(nc2c1)CCC3)c1ccc(F)cc1 | -4 | -7 | -2 | -1 | -13 | -10 | i | .
COc1cccc(CNC(=O)c2ccc(COc3ccccc3)cc2)c1 | 8 | 13 | 6 | 1 | 2 | -5 | i | -22
N#CC1=C(SCc2ccccc2)NC(=O)CC1c1ccco1 (stereo not given) | 18 | -4 | -2 | 5 | -5 | 17 | i | 0
O=C(Nc1cccc(S(=O)(=O)Nc2ccccc2F)c1)c1ccc2ccccc2n1 | -8 | 0 | -2 | -12 | 6 | -8 | i | .
Cc1ccc(OCc2nnc(SCC(=O)Nc3ccc4c(c3)OCO4)n2C)cc1 | -6 | 5 | -12 | -1 | 1 | -1 | . | -12
CC1(C)CC(=O)c2c(oc3cc(O)c(O)cc23)C1 | 6 | -69 | -3 | -7 | 28 | -2 | i | -24
O=C(NCc1ccccc1)C1CCC(CNc2c(N3CCCCC3)c(=O)c2=O)CC1 (stereo not given) | -4 | -29 | 2 | 7 | -10 | 7 | i | -11
COCCCOc1cc(NCc2ccccc2)c2ncn(C(C)C)c2c1 | . | 15 | 4 | 3 | 3 | . | . | -3&-15
O=C(COC(=O)c1ccccc1)NC1CCCCCC1 | . | 11 | 4 | 4 | 8 | . | . | -27
O=c1c(Sc2ccccc2)c(C(F)(F)F)[nH]n1-c1ccccc1 | -4 | 10 | -1 | -3 | 42 | -4 | i | -4
CCCCCCCCCCC(=O)Nc1cccnc1 | -5 | 7 | . | . | -5 | -6 | i | .
O=C(NNC(=O)C12CC3CC(CC(C3)C1)C2)c1ccccc1O | . | 7 | 6 | 0 | 0 | . | . | 7
Cc1ccc(S(=O)(=O)Nc2ccc(N3CCOCC3)cc2)cc1C | 3 | 4 | 3 | 0 | -9 | -2 | i | -11
C[C@H]1COC(=O)[C@@H](Cc2ccc(F)cc2)C/C=C\C[C@@H](CC(=O)N[C@@H](CO)Cc2ccccc2)C(=O)N1 | . | -31 | 6 | -1 | 3 | . | . | -4
Cc1ccc(CNC(=S)NC2CCCCC2)cc1 | -1 | -13 | 4 | 0 | -11 | -7 | i | -23
O=S(=O)(O)c1nc2ccccc2n1Cc1ccc(Cl)cc1 | 30 | . | -9 | -1 | . | -15 | i | -14
CSc1ccccc1OCc1cc(C(=O)N(C)C(C)c2ccccn2)no1 (stereo not given) | -9 | -17 | -1 | 0 | -2 | 0 | i | -14
CCN(CC)C(=O)N1CCN(C(=O)N2CCOCC2)CC1 | -8 | -17 | -3 | -1 | 2 | 2 | i | -9
Cc1ccc(S(=O)(=O)NC(CC(C)C)C(=O)N2CCCCCCC2)cc1 (stereo not given) | . | 31 | -6 | -2 | -13 | . | i | .

5 entries picked at random from the list so far:
SMILES | PABP FP inh | Env fusion inh | MT1-MMP act inh | MT1-MMP act inh RFP | CSC inhib | eIF4H inh | Rce1 inhib | UUG fidelity
O=C(NNC(=O)C12CC3CC(CC(C3)C1)C2)c1ccccc1O | . | 7 | 6 | 0 | 0 | . | . | 7
O=S(=O)(O)c1nc2ccccc2n1Cc1ccc(Cl)cc1 | 30 | . | -9 | -1 | . | -15 | i | -14
N#CC1=C(SCc2ccccc2)NC(=O)CC1c1ccco1 (stereo not given) | 18 | -4 | -2 | 5 | -5 | 17 | i | 0
CCN(CC)C(=O)N1CCN(C(=O)N2CCOCC2)CC1 | -8 | -17 | -3 | -1 | 2 | 2 | i | -9
N#CCCN(C(=O)COC(=O)c1ccc2c(=O)n3c(nc2c1)CCC3)c1ccc(F)cc1 | -4 | -7 | -2 | -1 | -13 | -10 | i | .

The list continues.
SMILES | PABP FP inh | Env fusion inh | MT1-MMP act inh | MT1-MMP act inh RFP | CSC inhib | eIF4H inh | Rce1 inhib | UUG fidelity
COc1ccccc1N(CC(=O)Nc1ccc(Br)cc1F)S(=O)(=O)c1cccs1 | . | 6 | -6 | -8 | . | . | . | 10
CCCCN(C(=O)C1CCCO1)c1c(N)n(CC(C)C)c(=O)[nH]c1=O (stereo not given) | . | . | -3 | -1 | -3 | . | i | -8
Cc1ccc(CNC(=O)CCC2CCCN(C(=O)c3ccc4c(c3)OCO4)C2)o1 (stereo not given) | 5 | -3 | -4 | 1 | -14 | -7 | i | 13
COc1ccccc1N1C(=O)N(C(C)=O)C2C1Nc1ccccc1N2C (stereo not given) | 110* | . | -165 | 17 | -7 | 78* | i | 22
COc1ccc([C@H]2CC(=O)C=C(c3cc(Br)ccc3OC)C2)cc1 | . | -33 | -1 | -7 | . | . | . | -8
COc1cccc(N2CCN(C(=O)c3cc(-c4ccccc4)nc4c3cnn4C(C)C)CC2)c1 | . | . | -2 | -1 | 9 | . | . | -8
Cc1ccc(CNC(=O)C2CC(c3ccccc3[N+](=O)[O-])=NO2)o1 (stereo not given) | 10 | 13 | -1 | 2 | -12 | 2 | i | -19
N#CC(Cc1cccs1)c1nc2ccccc2[nH]1 (stereo not given) | . | 22 | -10 | 1 | . | . | . | -9
CC(=O)c1cccc(NC(=O)C(C)OC(=O)c2cc(C)oc2C)c1 (stereo not given) | . | ? | 3 | -1 | . | . | . | 6
Cc1ccc(-c2nnc(SCC(C)C)n2C)cc1 | -4 | -39 | 1 | 3 | . | -8 | i | -14
CC(=O)NC(Cc1ccc(F)cc1)C(=O)NC1CCN(C(=O)NCc2ccccc2)CC1 (stereo not given) | -2 | -20 | 1 | 5 | -7 | -2 | i | -13
CCN(CC)C(=S)NCCc1ccccc1 | -9 | -2 | 3 | 5 | -11 | -1 | i | .
C[C@@H](CN1C2=NC[C@H](C)N2C[C@H]1Cc1ccc(O)cc1)NC(=O)CCC1CCCCC1 | -4 | 17 | 4 | 5 | -1 | 4 | i | -17
CC(C)(C)n1nnnc1C(CCc1ccccc1)N1CCN(C/C=C/c2ccccc2)CC1 (stereo not given) | . | 8 | -1 | -8 | . | . | . | -10
COc1ccc(/C=C/C(=O)NCCOc2ccc(C)cc2)cc1 | -3 | 11 | 2 | 1 | -13 | 0 | i | -11
COc1cc(C2NC(=S)NC(c3ccccc3)=C2C(C)=O)ccc1O (stereo not given) | -9 | 1 | 0 | -2 | -3 | -2 | i | .
CCOCCCN1C(=O)CN(C2CCCCC2)C(=O)C1c1ccc(OCC)c(OC)c1 (stereo not given) | 14 | -5 | 5 | 3 | -6 | -1 | i | .
O=C(c1ccccc1F)N1CCN(c2ccc([N+](=O)[O-])c(NCC3CCCO3)c2)CC1 (stereo not given) | 17 | 11 | 1 | -4 | -8 | -3 | i | .
COc1cccc(CN2CCc3[nH]c(=S)[nH]c(=O)c3C2)c1 | 9 | -2 | -5 | -3 | 11 | 4 | i | -20

Only part of the results is shown (hit frequency here may not be typical).
